# NPYLR7 agonist – mosquito NPYLR7 agonism; 0.15% of 270,000 active; HEK293T NPYLR7/Galpha15, GCaMP6s calcium fluorescence; activation, % at 10 µM; in the data active = activation above about 40%;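 also: 0% = vehicle and 100% = reference agonist at the receptor; some compounds past the cut are filed as inactive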
# NPYLR7 agonist max-min – further read-out of NPYLR7 agonist, marked with its call; activation, %; measured here: Max-Min RFU normalised activation; some inactives read as strong as hits;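 span of the calcium signal over five minutes; 0% = vehicle and 100% = native peptide agonist; compound fluorescence can raise it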
# * marks the source's active call; other numbers are inactive results; & = joins results of further samples.
no.	mol	NPYLR7 agonist	NPYLR7 agonist max-min
1	Cc1ccc(C(=O)Nc2ccc(N3CCN(C(=O)c4cccc(C#N)c4)CC3)nc2)cc1	-4	7
2	O=C(CCC1CCCC1)NCC1COc2ccccc2O1 (configuration not stated)	-14	-16
3	COc1cccc2cc(C(=O)NNC(=O)c3ccccc3)c(=O)oc12	-2	2
4	OC(COCc1ccco1)CN(Cc1cccc(Cl)c1)CC1CC(c2ccccc2F)=NO1 (configuration not stated)	-3	3
5	O=C(Nc1cc(F)ccc1F)c1ccc(CS(=O)(=O)c2ccccc2)o1	3	3
6	CCNC(=O)[C@@]1(OCc2ccc(C#N)cc2)CC(OCc2ccc(F)cc2)[C@H](O)[C@H](O)C1 (some centres not stated)	6	7
7	O=C(Nc1nc2c(cc3c4c(cccc42)CC3)s1)c1cccc(N2C(=O)CCC2=O)c1	-1	-3
8	O=C(NCc1n[nH]c2c1CCCCC2)c1cnn2c1CCCC2	6	6
9	c1ccc(-n2ncc3c2NC(N2CCC(n4ccnc4)CC2)=NC3)cc1	8	8
10	O=C1CCCN1c1ccc(S(=O)(=O)Nc2ccc(I)cn2)cc1	-3	-6
11	O=C(O)c1cccc(-c2ccn[nH]2)c1	-6	-5
12	COc1ccc(NC(=O)NCCc2nc(C(F)(F)F)cs2)cn1	34	23
13	CC(C)C(NCc1nc(Cc2ccccc2F)no1)c1ncnn1C (configuration not stated)	-4	-8
14	O=C(NNc1nccc(C(F)(F)F)n1)C1CC(=O)N(Cc2ccc(F)c(Cl)c2)C1 (configuration not stated)	-1	2
15	CCOc1ccc(-c2ccc(=O)n(CCNS(=O)(=O)c3cc(OC)ccc3OC)n2)cc1	-3	-3
16	Cc1cccn2c(=O)c3cc(C(=O)N(C)C)n(C)c3nc12	2&3	2&1
17	OC(c1ccc(Cl)c(F)c1)c1ncc(-c2ccccc2Cl)[nH]1 (configuration not stated)	1	-1
18	Cc1ccc(C(CC(=O)NCCc2ccccc2)c2c[nH]c3ccccc23)c(C)c1 (configuration not stated)	-5	4
19	O=C(CC1C=CCC1)NCCN1C(=O)SC(=Cc2ccc3c(c2)OCO3)C1=O (configuration not stated)	0	25
20	Oc1ccc(NC(=S)Nc2ccc(OC(F)F)cc2)cc1	11	7
21	CON1C(=O)c2ccccc2NC12CCN(Cc1coc3ccc(C(C)C)cc3c1=O)CC2	0	8
22	O=C(c1noc2c1CCCC2)N1CCC2(CCCN(Cc3ccc(F)cc3)C2)C1 (configuration not stated)	2	-2
23	CCCOc1nc(-c2ccc(OC)cc2)n(-c2cccc(NC(=O)c3cccc([N+](=O)[O-])c3)c2)n1	-14	-4
24	CCn1c(=NC(=O)C2CCCN2S(=O)(=O)c2cccs2)sc2cc(C(=O)OC)ccc21 (configuration not stated)	-3	-5
25	Cc1[nH]c2ccccc2c1C(=O)COC(=O)C1(CC(=O)N2CCOCC2)CCCC1	0	-1
26	Cc1cc(Oc2ccccc2F)nc(SCc2cccc(C(F)(F)F)c2)n1	10	18
27	O=c1ccc(-c2ccco2)nn1CCNS(=O)(=O)c1cccc(C(F)(F)F)c1	6	4
28	COc1ccc(C(=O)N2CCCC(OCc3ccccc3Cl)C2)cc1 (configuration not stated)	-9	-2
29	CCN(Cc1nccn1Cc1cccc(F)c1)C(=O)C1CCCC1	18	27
30	CN1CCC(N(Cc2cccnc2)Cc2ccc(O)cc2Cl)CC1	6	5
31	O=C(CC1NC(=O)NC1=O)NCC1(c2ccc(F)cc2)CCCC1 (configuration not stated)	-3	-10
32	CCCCn1nnnc1NCc1ccsc1	5	3
33	Cc1csc2nc(O)c(C(=O)NCCN3CCOCC3)c(=O)n12	-2	31
34	COCC(=O)N(CCN1C(=O)CSC1c1ccc(OC)cc1)C(C)C (configuration not stated)	27	25
35	COC(=O)c1ccc(Cn2nc(C3CC3)c3cnn(-c4ccc(F)cc4)c3c2=O)o1	6	2
36	CCc1[nH]c2c(CNc3cc(N4CCOCC4)ncn3)cc(C)cc2c1C	0	-3
37	Cc1ccc(Cn2c(SCCCC#N)nc3ccccc3c2=O)cc1	14	15
38	Cc1ccccc1-n1nc(C(C)C)c(C(=O)O)c1C(C)C	-15	-7
39	CN(C)P(=Nc1ccc([N+](=O)[O-])cc1Br)(N(C)C)C(C)(C)C	-1	-11
40	CCCCCN(C)CCC(O)(P(=O)(O)O)P(=O)(O)O	5	9
41	CCc1nc(C2CN(C(=O)c3cc(C4CC4)on3)CCO2)n[nH]1 (configuration not stated)	-2	-4
42	O=C(Nc1nc(-c2ccc3c(c2)OCO3)cs1)c1cc(Cl)ccn1	5	-1
43	CCN(CC)CCCC(C)NC(=O)c1sc2ccc3ccccc3c2c1Cl (configuration not stated)	-12	-9
44	O=S(=O)(Nc1nc2ccccc2nc1N1CCCC1)c1ccc2c(c1)OCCO2	14	10
45	Cc1ccccc1C1(O)CCN(C(=O)c2ccn3nnnc3c2)C1 (configuration not stated)	-1	-5
46	CC(C(=O)Nc1nccs1)n1cc([N+](=O)[O-])cn1 (configuration not stated)	-4	-8
47	Cc1csc(NC(=O)C=Cc2ccc3c(c2)OCO3)n1	2	-3
48	N#Cc1ccc(Oc2ncccc2[N+](=O)[O-])c(Cl)c1	7	2

# Full records as entered above.
# Cc1ccccc1C1(O)CCN(C(=O)c2ccn3nnnc3c2)C1 (configuration not stated) across the screens: NPYLR7 agonist: -1; NPYLR7 agonist max-min: -5
# O=C(Nc1nc(-c2ccc3c(c2)OCO3)cs1)c1cc(Cl)ccn1 across the screens: NPYLR7 agonist: 5; NPYLR7 agonist max-min: -1
# O=S(=O)(Nc1nc2ccccc2nc1N1CCCC1)c1ccc2c(c1)OCCO2 across the screens: NPYLR7 agonist: 14; NPYLR7 agonist max-min: 10

# (cont.)
no.	mol	NPYLR7 agonist	NPYLR7 agonist max-min
49	Cc1ccc(C)c(OCCCC(C)(C)C(=O)N2CCC(c3ccccc3)CC2)c1	-2	-6
50	CC(C)(C)NC(=O)c1cnn2c1NC(c1ccc(F)cc1)CC2C(F)(F)F (configuration not stated)	-7	-10
51	COc1ccc(C(C2Sc3nc(C)nn3C2=O)N2CCC(O)CC2)cc1 (configuration not stated)	0	-5
52	COc1ccc(Cl)cc1NC(=O)Nc1ccc2c(c1)C(=O)N(C)CCO2	0	-2
53	CC(C)C(=O)Nc1ccc(C(=O)NNC(=S)NC(=O)c2ccc(-c3ccccc3)cc2)cc1	1	-1
54	CCOc1ccc(-n2c(CNC(=O)c3ccco3)nnc2SCC(=O)Nc2nc3ccccc3s2)cc1	-14	-12
55	CCC(C)N(CC(=O)N1CCc2sccc2C1c1ccc(Cl)cc1)C(=O)c1ccc(Br)cc1 (configuration not stated)	19	19
56	Cc1cc(Cl)cc(Br)c1OCCON1C(=O)CCC1=O	-3	-4
57	O=C(Cn1cc(C(F)(F)F)ccc1=O)NN=Cc1ccco1	0	6
58	Cc1c(C(=O)NCc2ccc(C(C)C)cc2)sc(=O)n1Cc1ccc(C(=O)N(C)C)cc1	-6	-7
59	COc1cccc(Oc2cnc(N)nc2-c2ccc(OCc3ccc(F)cc3)cc2O)c1	1	-3
60	COc1cccc(C(=O)NCCNc2ccc(Nc3cc(C)ccn3)nn2)c1OC	2	-4
61	Cc1ccc(S(=O)(=O)NC2CC(=O)N(Cc3cccc(F)c3)C2)c(C)c1 (configuration not stated)	-2	-4
62	CC(=O)Nc1ccc(NC(=O)c2nnn(-c3ccc(C)c(C)c3)c2C)cc1	-3	-7
63	O=C1C(C(c2ccc(F)cc2)N2CCN(CCO)CC2)Sc2ncnn21 (configuration not stated)	1	-2
64	CCC(C)Sc1nnc(-c2cn(C)nc2OC)n1CCOC (configuration not stated)	-2	-1
65	COc1cccc(-c2nc3ccc(Cl)cn3c2NCc2ccccc2)c1	-5	0
66	O=C(Nc1nnc(C2CCCCC2)s1)C1CCCCC1	4	5
67	CN(Cc1nc(-c2cccc(Cl)c2)no1)CC1CCN(Cc2ccccc2)CC1	3	0
68	CSc1ncc(CN2CCC3(CCCN(Cc4ccc(F)cc4)C3)C2)cn1 (configuration not stated)	6	2
69	Cc1nn(C)cc1CN1CCOc2ccc(C3=Cc4ccccc4C3)cc2C1	17	5
70	CC(C)(C)c1csc(NC(=O)c2ccc(Cl)s2)n1	1	-2
71	CC1(c2ccccc2)NC(=O)N(NC(=O)c2cccc(OCc3ccccc3)c2)C1=O (configuration not stated)	3	1
72	OC1CCN(c2cc(N3CCOC(c4ccc(Cl)cc4)C3)ncn2)CC1 (configuration not stated)	-4	-9

# Values by screen from the list.
# Compounds 63 to 66 in NPYLR7 agonist max-min: -2, -1, 0, 5
# Compounds 63 to 66 in NPYLR7 agonist: 1, -2, -5, 4

# Other compounds follow:
no.	mol	NPYLR7 agonist	NPYLR7 agonist max-min
73	CN(CCc1ccccc1)C(=O)c1cccc2c3c([nH]c12)CCCC3	5	3
74	CCOc1cc(Nc2ccc(NC(=O)Nc3cccc(OC)c3)cc2)nc(C)n1	10	7
75	Cc1c(C(=O)NCc2ccc(F)cc2)sc(=O)n1CC(=O)c1ccccc1F	2	2
76	COCC1CCN(c2nc3nonc3nc2NC2CCCC2)C1 (configuration not stated)	8	2
77	COCCNC(=O)c1cc(OC)c(OC)c(OC)c1	7	8
78	CCCS(=O)(=O)N1CCN(c2nc(-c3ccccc3)nc(COC)c2Cc2c(F)cccc2Cl)CC1	-2	4
79	C=C(C)Cn1c(N=Nc2c(O)[nH]c3ccccc23)nc2c1c(=O)[nH]c(=O)n2C	0	8
80	O=C(O)c1ccccc1-c1ccccc1C(=O)Nc1nccs1	4	3
81	Cc1csc(NC(=O)CSc2nc(=O)n(CCCO)c3c2CCC3)n1	-8	-15
82	CN(Cc1ccccc1)C1CCCN(C(=O)c2nn(C)c(=O)c3ccccc23)C1 (configuration not stated)	4	0
83	CCN1CCN(C(=O)c2ccc(N3CCC(NC(C)C45CC6CC(CC(O)(C6)C4)C5)CC3)cc2)CC1 (configuration not stated)	1	-1
84	CN(Cc1nc2ccccc2s1)C(=O)c1ccc2ccccc2c1	-2	-1
85	Cc1cc(-c2cc3c(n(Cc4cccnc4)c2=O)CCN(C(=O)C2CCOC(C)(C)C2)C3)ccc1F (configuration not stated)	13	-4
86	O=C(CCSc1ccc2c(c1)OCCO2)N1CCCn2cncc2C1	-5	-6
87	Cc1csc(CCNS(=O)(=O)c2ccc3c(c2)CCCC3)n1	9	7
88	C#CCNC(=O)N1CCN(S(=O)(=O)c2ccc(OC)c(OC)c2)CC1	16	12
89	CCOc1ccc(CN(Cc2ccc3ccccc3n2)C2CC2)cc1	-3	-9
90	N#Cc1c(-c2ccc3c(c2)OCO3)c(C#N)c2n3c(nn2c1=O)CCCCC3	22	21
91	c1cnc(-c2nc(CNCc3ccc(N4CCSCC4)cc3)cs2)nc1	0	-1
92	Cc1cc(C)c(S(=O)(=O)N2CCN(c3cc(C)nc(-c4ccc(C(F)(F)F)cc4)n3)CC2)c(C)c1	-5	-3
93	CCn1ccnc1CN1CCC(CCC(=O)Nc2ccc(OC)cc2OC)CC1	-3	-6
94	Cn1cccc1C(=O)N[C@H]1C[C@H]2C(=O)Nc3ccc(/C=C/c4ccc(CN5CCOCC5)cc4)cc3C(=O)N2C1	-8	-17
95	O=C(/C=C/c1ccc2c(c1)OCO2)NN1CCCC1	-8	-12
96	CCOC(=O)C1(C)CCCCCN1C(=O)c1ccc(OC)c(C(F)(F)F)c1 (configuration not stated)	-4	-8
97	CCCCC(Sc1nc(=O)[nH]c(C)c1C(=O)OCC)C(=O)O (configuration not stated)	6	10
98	CC(C)c1cc(Br)c(NC(=O)N[C@H](Cc2ccccc2)C(=O)N2CCC(C(=O)N3CCCCC3)CC2)c(Br)c1	0	3
99	Cc1nc(C)c(CNC(=O)N2CCC[C@@H]2CO)s1	11	11
100	CC(NC(=O)CSc1nnc(CCn2ccc(=O)[nH]c2=O)o1)C1CC2CCC1C2 (configuration not stated)	-1	-2
101	COc1cc(Cl)c(NS(=O)(=O)c2ccc(CNC(C)=O)cc2)cc1OC	0	0
102	CN(CCn1ccc2ccccc21)C(=O)C1CCOCC1	5	4
103	CC1CCCN(c2nc3ccccc3nc2NS(=O)(=O)c2ccccc2)C1 (configuration not stated)	-3	-4
104	CCCCCSc1nnc2c(n1)OC=Nc1ccc(Br)cc1-2	10	3
105	O=C(c1cn[nH]n1)N1CCCC1c1nc2ccc(F)cc2[nH]1 (configuration not stated)	-6	-12
106	CC(C)(C)CC(C)(C)Nc1c(-c2ccccn2)nc2ccc(Br)cn12	1	13
107	Cn1c(=O)c2c(ncn2CC(=O)OCC(=O)N(CCC#N)CCC#N)n(C)c1=O	8	6
108	CN(Cc1cc(-c2ccncc2)no1)C(=O)C1CCC(=O)N(C2CC2)C1 (configuration not stated)	6	2
109	O=C(CCn1ccc(=O)[nH]c1=O)NCc1cc(-c2ccc3c(c2)OCCO3)on1	9	7
110	COc1cc2c(cc1OC)C(CNC(=O)c1ccco1)N(C(=O)NC(C)C)CC2 (configuration not stated)	22	19
111	COCC(O)CN(Cc1nc2sc3c(c2c(=O)[nH]1)CCN(Cc1ccccc1)C3)Cc1ccco1 (configuration not stated)	5	5
112	Cc1nc(CCC(=O)NC2(C#N)CCSC2)oc1-c1ccccc1 (configuration not stated)	13	9
113	Cc1nnc(-c2cn(CC(=O)N3CCOCC3)c3ccccc23)o1	4	10
114	COc1ccc(NC(=O)CSc2nc(-c3ccccc3)cc(-c3ccc(OC)cc3)c2C#N)cc1	-8	-17
115	Cc1ccn2c(=O)c(C(=O)NCc3ccc(F)cc3)c(O)nc2c1	-1	39
116	Cc1cccc(/C=C2/SC(=S)N(c3cccc(C(F)(F)F)c3)C2=O)n1	2	9
117	Cc1nc(N2CCCC(N)CC2)c2ccsc2n1 (configuration not stated)	1	0
118	Cc1cccc(N=Cc2c(O)c3ccccc3oc2=O)n1	5	3
119	O=C(c1cc(COc2ccc(-n3cncn3)cc2)on1)N1CCC(c2ccncc2)CC1	1&-2	-4&-2

# Some of the compounds tested, so the mix of outcomes need not match the whole.
